Screening data as filed in PubChem.
AF4-AF9 inh: MLL-AF4/AF9 protein interaction inhibition | P42568 | AlphaScreen, biotin-AF4 peptide binding to FLAG-AF9 | inhibition, % at 10 µM | hit rate 0.47% among 350,000 | AID 651704;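 active = every replicate reaching a set inhibition limit, whatever the replicate mean, cut at about 25% in these data; inconclusive = mean inhibition reaches that limit but some replicates miss it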;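 also: 0% = plate neutral control median and 100% = total signal loss; the record names both 10 and 1 µM as test concentration; the first replicate is given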
Calb FLC: affects C. albicans growth with fluconazole | growth inhibition, % (test concentration not listed) | AID 1979 | C. albicans CaCi-2 (fluconazole-resistant clinical isolate) + fluconazole, Alamar Blue growth, 48 h | hit rate 0.57% among 300,000;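 active = most replicates above 75%; inconclusive = exactly half above 75%; inactive = most below 75%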;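 also: all wells also contain fluconazole at 8 µg/ml as a sub-toxic cotreatment; 0% = median of DMSO wells and 100% = median of geldanamycin control wells; wells of about 8 µL received 7.5 nL stock; the first replicate is given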
LANA-H2A inh: blocks KSHV LANA binding to histone H2A/H2B; cell-free LANA-H2A/H2B peptide, fluorescence polarization; hit rate 0.6% among 320,000; inhibition, % (test concentration not listed); Q9QR71; in the data active = inhibition mostly above about 10%, no sharp cut-off; inactive = mostly below about 6.7%;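 also: stock transfer was 7.5 nL into about 10 µL; 0% = median of vehicle wells and 100% = median of positive control wells; one replicate is shown; the record names a cut of 25% in any replicate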
Target sequence (Q9QR71 whole entry, looked up): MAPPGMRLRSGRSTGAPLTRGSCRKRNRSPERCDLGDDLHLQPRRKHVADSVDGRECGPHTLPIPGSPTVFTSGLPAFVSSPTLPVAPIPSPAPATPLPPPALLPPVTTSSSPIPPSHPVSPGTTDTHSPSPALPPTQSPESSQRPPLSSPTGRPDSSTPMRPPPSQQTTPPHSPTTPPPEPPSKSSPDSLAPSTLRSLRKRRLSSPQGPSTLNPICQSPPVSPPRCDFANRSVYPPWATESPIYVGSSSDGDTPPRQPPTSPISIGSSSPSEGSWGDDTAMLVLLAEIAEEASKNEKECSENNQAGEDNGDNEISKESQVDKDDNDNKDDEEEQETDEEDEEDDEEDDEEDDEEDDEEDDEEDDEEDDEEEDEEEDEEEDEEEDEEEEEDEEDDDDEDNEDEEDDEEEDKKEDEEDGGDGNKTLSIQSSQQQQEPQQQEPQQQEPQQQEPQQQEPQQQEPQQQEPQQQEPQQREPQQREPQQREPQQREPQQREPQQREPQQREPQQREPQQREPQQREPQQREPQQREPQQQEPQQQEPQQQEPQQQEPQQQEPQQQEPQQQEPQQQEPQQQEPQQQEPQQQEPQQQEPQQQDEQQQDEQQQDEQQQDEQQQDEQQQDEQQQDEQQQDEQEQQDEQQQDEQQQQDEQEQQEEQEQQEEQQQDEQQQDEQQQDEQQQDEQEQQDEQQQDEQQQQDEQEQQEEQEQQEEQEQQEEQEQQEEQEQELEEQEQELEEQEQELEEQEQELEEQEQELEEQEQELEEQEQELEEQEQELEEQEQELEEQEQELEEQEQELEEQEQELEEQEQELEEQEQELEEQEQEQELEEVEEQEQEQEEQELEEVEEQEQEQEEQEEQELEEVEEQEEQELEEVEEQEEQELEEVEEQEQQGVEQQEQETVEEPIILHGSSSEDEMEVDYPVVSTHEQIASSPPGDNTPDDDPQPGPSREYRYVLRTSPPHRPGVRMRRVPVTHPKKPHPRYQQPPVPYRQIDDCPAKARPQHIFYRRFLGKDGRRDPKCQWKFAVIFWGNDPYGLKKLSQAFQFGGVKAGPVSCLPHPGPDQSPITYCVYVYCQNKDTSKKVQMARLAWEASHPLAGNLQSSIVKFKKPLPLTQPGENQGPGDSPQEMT
A1 inh: inhibitors of the anti-apoptotic protein A1, read as caspase activation. MEF A1-2A-BIM cells, Caspase-Glo 3/7 luminescence, 3 h; percent of clofoctol response, vehicle zero. caspase activation, % (no concentration beside the values). hit rate 0.066% among 330,000;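 active = over half of replicate activation scores above 10%, or exactly half above 10 with the replicate mean above 10; inconclusive = replicate mean below 10 yet half the replicates above 10; inactive = over half of replicates below 10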;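 also: wells of about 30 µL received 50 nL stock; many hits fall short of the cut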
Beta cell apopt: beta cell apoptosis inhibition. INS-1E cytokine-induced death, ATP luminescence, 48 h; percent of positive-control rescue, neutral wells zero. protection from apoptosis, % (concentration not given with the values). hit rate 0.8% among 300,000. AID 435005;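 active = all replicates at 75% or more, or half of them and the mean; inconclusive = half reach 75% but not the mean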;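 also: 0% = cytokine-treated negative control wells and 100% = positive control rescue; higher means more ATP so stronger rescue from cytokine killing; wells of about 40 µL received 100 nL stock; the first replicate is given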
T cruzi repl: blocks replication of Trypanosoma cruzi. T. cruzi beta-gal in NIH3T3, luminescence, 90 h. inhibition, % (test concentration not listed). hit rate 1.4% among 300,000. AID 1885;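 active = mean inhibition across valid replicates above about 55%, limit read from the data; inconclusive = mean below that limit but half or more replicates reach it; inactive = mean below it, under half of replicates reach it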;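 also: signal also drops with host cell toxicity which is not excluded here; 0% = plate median of DMSO wells and 100% = zero luminescence signal; higher percent means less beta-gal luminescence so fewer parasites; stock transfer was 50 nL into about 50 µL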
RanGTP-Imp inh: inhibitors of RanGTP-importin-beta interaction, primary screen, biochemical, FRET, CFP-Ran, YFP-importin-beta, homogeneous | cell-free CFP-Ran/YFP-importin-beta FRET ratio | inhibition, % (test concentration not listed) | hit rate 1.1% among 300,000 | AID 2216;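 active = most replicates above 15%; inconclusive = exactly half above 15%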;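 also: 0% = DMSO wells and 100% = Ran loaded with GDP instead of GTP; wells of about 40 µL received 100 nL stock; the first replicate is given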
Vif A3G: HIV-1 Vif–A3G interaction blockers – biochemical, TR-FRET, GST-Vif 1-94, biotin-A3G peptide, dose response retest, primary screen (AID 1117319). TR-FRET GST-Vif / biotin-A3G peptide binding; higher % means a stronger effect; test concentration not given here; strong numbers were not always called active. inhibition, %; hits with a dose series show IC50 in µM. hit rate 0.57% among 260,000;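 active = above the screen mean plus three standard deviations and confirmed in dose response; inconclusive = results disagree or hit not tested in dose response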;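 also: Vif residues 1-94 fused to GST binding biotinylated APOBEC3G peptide 110-148; 0% = full assay without inhibitor and 100% = GST in place of GST-Vif; retest series ran down from 100 µM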
Active calls of the source: *; ? = inconclusive; . = no result given; & = joins results of further samples.

SMILES	AF4-AF9 inh	Calb FLC	LANA-H2A inh	A1 inh	Beta cell apopt	T cruzi repl	RanGTP-Imp inh	Vif A3G
C/C=C/c1ccc(OCC(=O)Nc2ccc(C(N)=O)cc2)c(OC)c1	-0.2	2	5.8	-1.9	-1	-12	2.0	.
Cc1ccc2cccc(NC(=S)NC(=O)c3c(Br)cnn3C)c2n1	.	-2	-1.2	0.2	8	5	-2.4	12%
CCCN1C(=O)C(O)(c2c(C)[nH]c3ccccc23)c2ccccc21 (stereo not given)	1.4	-5	3.0	0.5	0	-10	7.8	3%
COc1ccccc1OCc1nc2ccccc2n1C	-3.6	6	1.0	-3.4	-6	-23	-4.1	.
CCOC(=O)c1[nH]c2ccccc2c1NC(=O)c1ccco1	.	1	4.2	-0.8	-1	11	-2.6	0%
O=C(CSc1nnc(NC(=O)Cc2ccc(F)cc2)s1)NCc1ccco1	-1.5	-1	2.7	0.4	-3	7	4.2	-4%
COc1ccc(NC(=O)C2CCN(S(=O)(=O)c3c(C)noc3C)CC2)cc1	-5.4	0	1.1	1.4	3	3	0.7	.
O=C(CC(c1ccccc1)c1ccco1)N1CCOCC1 (stereo not given)	.	?	-0.6	0.4	1	-10	4.8	4%
COc1cc(OC)cc(C(=O)NNC(=O)CCC2CCCC2)c1	-1.1	.	2.2	1.1	-4	.	.	.
O=C(O)c1cncc(SCc2ccccc2)n1	-3.2	2	4.5	0.0	1	.	-1.1	.
O=c1cc(O)c2ccccc2n1Cc1ccccc1	-5.1	3	0.5	-0.3	5	2	-1.2	33%
COc1ccc(NC(=O)/C(C#N)=C\c2ccc(-c3cccc(C(=O)O)c3C)o2)cc1	1.7	21	-3.2	-2.1	-2	1	2.2	.
CCOc1ccccc1NS(=O)(=O)c1ccc2c(c1)n(C)c(=O)c(=O)n2C	.	24	-5.3	1.1	.	-15	8.5	-1%
CC(NC(=O)c1ccc2c(c1)OCO2)C1CCCO1 (stereo not given)	7.5	-7	-4.0	0.4	-3	15	3.0	24%
COc1ccc(C(c2oc(CO)cc(=O)c2O)c2oc(CO)cc(=O)c2O)cc1	1.2	-13	0.3	0.1	-2	-1	3.6	1%
CCCCC(=O)Nc1c(O)c2ccccc2[nH]c1=O	.	0	1.0	1.4	-7	-11	7.2	32%
O=C(CNS(=O)(=O)c1ccccc1)N1CCN(Cc2ccccc2)CC1	-1.8	3	-5.1	-0.7	2	-5	-0.3	8%
Cc1ccccc1CNC(=O)c1cc(COc2ccc(F)cc2F)on1	0.8	23	-1.7	-0.8	-4	9	-2.6	10%
COc1cc(C(=O)Nc2ccc3c(c2)CCCN3C(=O)c2ccco2)c([N+](=O)[O-])cc1OC	3.0	9	3.0	?	1	-12	-0.6	-4%
COC(=O)CC/C(O)=C1/C(=N)CC(C)(C)CC1=O	.	4	0.7	0.0	-3	-9	2.4	23%
O=C(NC1CCN(S(=O)(=O)c2ccc(F)cc2)CC1)c1cccc(F)c1	-3.1	-5	8.9	0.0	-1	-4	-2.1	.
C[C@@H]1C(=O)O[C@H]2[C@H](O)[C@@]34[C@H]5C[C@@H](C(C)(C)C)[C@]36[C@@H](OC(=O)[C@@H]6O)O[C@@]4(C(=O)O5)[C@@]12O	3.6	-4	0.2	-0.1	-3	-2	-3.6	-7%
CC(C)CC(C(=O)NC(=O)NCc1ccccc1)N1C(=O)c2ccccc2C1=O (stereo not given)	.	0	-0.4	0.0	-7	.	2.7	2%
CC(Oc1ccc(Br)cc1)C(=O)NCC(c1ccco1)N1CCCCC1 (stereo not given)	-17	-1	0.2	-0.3	3	0	-1.5	.
CCOCCCNCc1c(Cl)cccc1Cl	-0.1	-1	-3.7	0.0	-4	-13	?	.
CC(C)Cc1cc(C(=O)N2CCN(C(c3ccccc3)c3ccccc3)CC2)no1	0.2	6	-4.5	-0.1	-5	21	0.3	-5%
COc1ccc(-n2c(C)nc3cc(C(=O)NCc4ccco4)ccc32)cc1	.	-3	-1.7	0.9	3	13	7.9	8%
COc1ccc(C(=O)OCCN2CCCCC2)cc1	1.6	-31	-15	0.8	.	19	11	-6%
COC(=O)CCN(C(=O)c1cccc([N+](=O)[O-])c1)c1ccccn1	0.5	-2	4.5	-0.1	-7	3	-4.5	-9%
Cc1ccc(S(=O)(=O)n2ccc(=O)[nH]2)cc1	1.6	-9	-2.4	0.5	-4	-25	0.2	78%
Cc1ccc(NC(=S)N/N=C2\CCCCC2C)cc1 (stereo not given)	14	-4	0.3	1.3	-5	-11	0.1	4%
O=C(Nc1cc2c(cc1Cl)OCCCO2)c1ccccc1	.	7	-3.0	-0.8	0	-5	4.0	5%
COc1cc(Cl)c(NS(=O)(=O)c2cc3[nH]c(=O)c(=O)[nH]c3cc2C)c(OC)c1	2.4	10	5.4	?	3	-7	?	.
COc1ccc(N2CCN(c3ncnc4nc[nH]c34)CC2)cc1	4.9	10	-5.8	-7.3	.	-6	-3.5	19%
CCOc1ccc(NC(=O)CSc2nnc(-c3ccco3)n2C)cc1	.	1	-0.4	0.1	-3	10	1.8	2%
Cc1cccc(C)c1OCc1cc(C(=O)NC2CCC(O)CC2)no1 (stereo not given)	-0.6	16	21*	0.2	-1	-8	-1.3	3%
O=C(NNS(=O)(=O)c1ccccc1[N+](=O)[O-])c1cc2ccccc2cc1O	7.2	-4	-0.9	-1.8	-4	-1	-2.4	.
O=C(CN1CCC(NC(=O)Nc2ccccc2)CC1)Nc1cccc([N+](=O)[O-])c1	12	1	-5.1	1.0	.	26	?	.
O=C(CCC(=O)OCC(=O)c1ccc(Br)cc1)NC1CCCCC1	.	2	2.9	0.0	-10	-7	-0.1	10%
Cc1cc(-c2[nH]nc3c2C(c2ccc(Cl)cc2)C(C#N)=C(N)O3)c(C)s1 (stereo not given)	.	19	-0.4	0.7	-15	-5	-2.2	11%
CCN(C1CCCCC1)S(=O)(=O)c1cn(C)c(=O)n(C)c1=O	-2.2	0	-2.5	-1.0	-2	3	9.8	-2%
Cc1ccc(S(=O)(=O)/C(=C\N(C)C)c2cnc(Cl)s2)cc1	-0.9	22	-2.7	?	-2	-6	-3.0	2%
COCCNC(=O)CN(C(=O)c1ccc(N2CCCC2)nc1)c1ccc(F)c(Cl)c1	-0.7	-17	-0.6	-0.2	-1	-2	-1.6	-3%
Cc1ccc(CNc2nnnn2C)cc1	-1.3	2	0.9	0.0	-4	-1	-0.3	.
Cc1c(C(=O)NNC(=S)Nc2cccc(Cl)c2)nnn1-c1ccccc1	.	9	-4.0	0.2	-7	-4	-0.6	?
COc1ccc(CN2CN(c3ccc(Cl)cc3)C(=O)N(n3cnnc3)C2)cc1	.	-27	1.8	0.0	-6	-8	-1.6	2%
CCc1cc2c(SCC(=O)C(C#N)=C3N(C)c4ccccc4N3C)ncnc2s1	.	-8	-0.9	0.2	-2	.	-2.1	0%
Cc1cc(C(=O)NNC(=S)NC(C)c2ccccc2)c2ccccc2n1 (stereo not given)	.	104*	2.2	0.1	4	2	1.7	?
O=C(O)C1CCN(S(=O)(=O)c2ccc(Cl)s2)CC1	-9.2	.	0.8	0.0	-5	.	.	-11%
Cc1csc2ncnc(NNC(=O)c3ccc(Cl)cc3)c12	1.0	-6	3.6	-0.3	32	-24	0.2	-5%
COc1ccc(CCNC(=O)C(=O)N2CCCC2)cc1OC	-0.3	-4	0.0	0.0	-2	-22	-2.8	1%
COc1ccccc1OCCC(=O)N1CCN(c2ccccc2OC)CC1	1.0	-2	3.2	-1.0	0	1	-0.3	-9%
C/C(=N/NC(N)=S)c1ccc(Br)s1	3.0	-4	-5.6	-0.2	1	61*	0.1	-8%
COc1ccc(C(=O)NC2c3ccccc3-c3ccccc32)cc1	-2.9	-21	1.7	0.5	-18	7	-0.1	6%
Nc1nc(NC(=O)c2cccc(S(=O)(=O)N3CCCCCC3)c2)nc(-c2ccccc2)n1	.	-18	5.1	0.8	21	22	1.4	5%&-9%
COc1ccc(CNC(=O)C(=O)c2cn(CC(=O)N3CCOCC3)c3ccccc23)cc1	2.1	1	0.4	0.0	-3	-17	0.9	.
COC(=O)C(NC(C)=O)(Nc1ccc(Br)cn1)C(F)(F)F (stereo not given)	.	-5	-1.4	0.4	-4	-6	2.7	2%
COc1ccccc1NS(=O)(=O)c1cccc(C(=O)N2CCN(Cc3ccc4c(c3)OCO4)CC2)c1	10	3	-0.2	-0.2	10	41	3.9	-4%
CCOC(=O)/C(C#N)=C/Nc1ccccc1OC	.	3	-0.6	-5.7	1	-2	2.8	20%
O=C(Nc1ccc(Nc2ccncc2)cc1)c1ccc(Nc2ccnc3ccc([N+](=O)[O-])cc23)cc1[N+](=O)[O-]	6.8	-3	-2.0	0.6	81*	-2	?	12%

Remaining list, next part.
SMILES	AF4-AF9 inh	Calb FLC	LANA-H2A inh	A1 inh	Beta cell apopt	T cruzi repl	RanGTP-Imp inh	Vif A3G
COc1ccc(-c2csc(NC(=O)C3=NN(c4ccccc4)C(=O)CC3)n2)cc1	3.8	19	1.5	-0.2	20	17	0.3	-9%
Cc1cc(NC(=O)COC(=O)C2CC(=O)N(c3ccc(Cl)cc3)C2)no1 (stereo not given)	5.7	-5	-5.6	0.4	-2	-9	?	-2%
CCOC(=O)c1csc(N)n1	-1.7	-18	-3.7	0.3	1	-7	4.4	-9%
Cc1ccc(C)c(N(C(=O)c2csnn2)C(C(=O)NC2CCCCC2)c2ccccn2)c1 (stereo not given)	37*	2	1.7	0.5	1	-2	-0.1	.
Cc1nc2ccc(NC(=O)CS(=O)(=O)c3ccccc3)cc2s1	-0.7	1	-0.4	-0.6	0	-4	-0.9	-13%
Cc1cc(C)n2nc(-c3ccc(F)cc3)nc2n1	.	-4	5.3	-4.8	-4	-10	-4.9	2%
O=C1CC(c2cccc([N+](=O)[O-])c2)c2c(ccc3ccccc23)N1 (stereo not given)	.	11	-5.1	-0.5	10	13	1.3	-2%
CCN(CC)C(=O)N1CCN(C)CC1	1.2	.	0.5	1.2	-2	7	1.8	-7%
CC(=O)Nc1ccc(NC(=O)C(C)Sc2n[nH]c(=O)n2Cc2ccccc2)cc1 (stereo not given)	-1.5	-3	0.8	-0.2	-3	-13	4.1	-2%
Cc1ccc(OCc2nc(-c3ccc(Cl)cc3)n[nH]2)cc1	.	29	-3.0	0.9	10	5	-0.8	1%
Cc1cccc(N2CC(C(=O)Nc3nnc(SCCN4CCOCC4)s3)CC2=O)c1 (stereo not given)	-7.5	2	8.0	0.8	-6	-1	1.4	8%
CCN(CC(=O)NCc1ccc(Cl)cc1)C(=O)c1cccc(S(=O)(=O)Nc2ccc(OC)cc2)c1	-2.0	4	0.8	-0.2	0	-4	4.5	-7%
N#CC1(NC(=O)CSc2nnc(Cc3ccccc3)o2)CCCCC1	1.3	.	2.3	-0.5	-3	.	.	-9%
CC1CCN(CCCNC(=O)c2cc3c(Cl)nc4ccccc4c3s2)CC1	7.3	-2	-13	0.7	-7	56*	?	-5%
Cc1[nH]n(-c2ccccc2)c(=O)c1N=Nc1nccs1	.	-11	1.1	-2.0	5	2	-6.7	?
